E coli growth = inhibitors of Escherichia coli growth; OD600, 23 h; hits give low values; OD600 absorbance (no concentration beside the values); 330,000 tested, 0.21% active; AID 1053175;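 active = OD600 absorbance below the run mean of sample wells minus 3.6 SD, in any replicate, cut at about 0.56 in these data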;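 also: stock transfer was 300 nL into about 60 µL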
Vif A3G = HIV-1 Vif–A3G interaction blockers – biochemical, TR-FRET, GST-Vif 1-94, biotin-A3G peptide, dose response retest, primary screen (AID 1117319); inhibition, %, or IC50 in µM where a hit was titrated; 260,000 tested, 0.57% active; TR-FRET GST-Vif / biotin-A3G peptide binding; higher % means a stronger effect; test concentration not given here; strong numbers were not always called active;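 active = above the screen mean plus three standard deviations and confirmed in dose response; inconclusive = results disagree or hit not tested in dose response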;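 also: Vif residues 1-94 fused to GST binding biotinylated APOBEC3G peptide 110-148; 0% = full assay without inhibitor and 100% = GST in place of GST-Vif; retest series ran down from 100 µM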
HNF4A DNA FP = change in binding of human HNF4 alpha to DNA. P41235. HNF4a-FITC DNA binding, fluorescence polarization, 1 h. activity change, % at 10 µM. 360,000 tested, 0.3% active. AID 1224865; in the data active = activity change above about 30%, passing the limit was not always enough;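 also: controls were the assay level and a saturating level of protein; the project sought stronger binding though the title names inhibitors; some compounds called inactive have numbers as strong as hits; positive values seem to mean higher polarization but the record does not say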
Target sequence (P41235 whole entry, looked up): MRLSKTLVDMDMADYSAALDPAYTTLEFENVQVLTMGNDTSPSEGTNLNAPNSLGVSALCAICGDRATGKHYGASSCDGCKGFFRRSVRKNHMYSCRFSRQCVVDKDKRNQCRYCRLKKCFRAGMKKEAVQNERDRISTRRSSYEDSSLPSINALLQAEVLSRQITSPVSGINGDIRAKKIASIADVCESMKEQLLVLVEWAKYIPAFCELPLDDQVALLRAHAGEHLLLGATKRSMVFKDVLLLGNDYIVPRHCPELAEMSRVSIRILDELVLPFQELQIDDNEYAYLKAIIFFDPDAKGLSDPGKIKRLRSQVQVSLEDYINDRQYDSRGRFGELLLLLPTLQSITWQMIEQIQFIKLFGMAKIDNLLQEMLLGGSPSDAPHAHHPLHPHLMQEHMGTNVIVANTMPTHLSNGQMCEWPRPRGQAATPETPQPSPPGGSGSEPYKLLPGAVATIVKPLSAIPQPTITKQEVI
ALR inh = blocks human ALR sulfhydryl oxidase activity; P55789; purified ALR, DTT oxidation, H2O2 HRP-luminol luminescence; inhibition, % (test concentration not listed); 290,000 tested, 3.8% active;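 active = mean and each replicate at 75% or more; inconclusive = only one of the two met; inactive = neither met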;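 also: stock transfer was 7.5 nL into about 7.5 µL; 0% = neutral wells and 100% = wells with inactivated enzyme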
Target sequence (P55789 whole entry, looked up): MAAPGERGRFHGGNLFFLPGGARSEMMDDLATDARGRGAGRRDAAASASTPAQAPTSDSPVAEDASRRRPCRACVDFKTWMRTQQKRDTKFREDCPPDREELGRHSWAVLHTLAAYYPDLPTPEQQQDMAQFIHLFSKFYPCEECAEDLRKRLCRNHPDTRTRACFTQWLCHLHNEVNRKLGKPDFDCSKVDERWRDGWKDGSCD
FGF22 binding = shifts melting point of recombinant human FGF22. AID 651658. Q9HCT0. calls only at 9.99 µM. 340,000 tested, 1.5% active. recombinant FGF22 thermal shift, SYPRO orange fluorescence; percent of sucrose octasulfate shift, DMSO zero;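 active = melting point raised past a set limit in the mean and every replicate; inconclusive = no clear call; three in four hits are not shown here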
Target sequence (Q9HCT0 whole entry, looked up): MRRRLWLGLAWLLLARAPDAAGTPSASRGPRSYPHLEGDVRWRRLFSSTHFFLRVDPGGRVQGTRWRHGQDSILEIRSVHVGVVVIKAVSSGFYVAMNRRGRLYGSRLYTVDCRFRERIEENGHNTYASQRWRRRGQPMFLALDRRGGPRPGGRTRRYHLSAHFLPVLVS
AF4-AF9 inh = blocks AF4 peptide binding to human AF9. inhibition, % at 10 µM. 350,000 tested, 0.47% active. AID 651704. AlphaScreen, biotin-AF4 peptide binding to FLAG-AF9. P42568;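 active = every replicate reaching a set inhibition limit, whatever the replicate mean, cut at about 25% in these data; inconclusive = mean inhibition reaches that limit but some replicates miss it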;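 also: 0% = plate neutral control median and 100% = total signal loss; the record names both 10 and 1 µM as test concentration; the first replicate is given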
Ecoli rRNA inh = inhibitors of bacterial rRNA selective over humanized ribosomes; E. coli WT GFP vs humanized-ribosome RFP mutants, fluorescence, 24 h; hits give low values; DMSO median 0, no signal -100; GFP signal change (wild-type ribosome), % (concentration not given with the values); 350,000 tested, 1.6% active;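 active = significant combined selectivity score with lowered wild-type GFP, culture density cut under 30%, mutant RFP and density less affected; inactive = any of these conditions unmet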; also: one replicate is shown; some compounds called inactive have numbers as strong as hits
Ecoli rRNA inh OD600 = recorded beside Ecoli rRNA inh, whose call it bears; OD600 change, %; measured here: OD600 growth;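 optical density of the mix in the first replicate; 0 = DMSO median and -100 = no signal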
Ecoli rRNA inh RFP = further read-out of Ecoli rRNA inh, marked with its call; RFP signal change, %; measured here: RFP humanized mutant strains;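 first replicate; 0 = DMSO median and -100 = no signal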
* = called active by the depositor; i = inactive; u = inconclusive; x = not tested or not shown; & = joins results of further samples.

E coli growth,Vif A3G,HNF4A DNA FP,ALR inh,FGF22 binding,AF4-AF9 inh,Ecoli rRNA inh,Ecoli rRNA inh OD600,Ecoli rRNA inh RFP,Molecule
0.699,7.2%,1.2,3.4,x,-1.2,10.5,3.0,-0.8,Cc1cccc(NS(=O)(=O)c2ccc(C(=O)N3CCCC3)cc2)c1C
x,x,x,x,i,-2.5,2.9,6.4,-2.1,COC(=O)C[C@@H]1C[C@@H]2c3cc(NC(=O)CC4CC4)ccc3O[C@@H]2[C@@H](CO)O1
0.669,u,3.4,7.9,x,x,x,x,x,CCOC(=O)CCNC(=O)Nc1ccc2nc(C)n(Cc3cccc(Cl)c3)c(=O)c2c1
0.678,-2.6%,-2.5,-6.2,i,4.1,8.2,8.3,0.3,COc1ccc(S(=O)(=O)N2CCN(C/C=C/c3ccccc3)CC2)cc1NC(C)=O
0.682,3.7%,-0.9,-6.6,i,-2.9,-0.8,-8.2,0.5,Nc1ccccc1S(=O)(=O)NCCCCc1ccccc1
x,x,-1.8,x,i,-1.5&-2.4,6.5,10.3,-2.1,O=C(C1=C[C@H](C2CCCCC2)C[C@H](OCCCCO)O1)N1CCOCC1
0.652,-0.3%,-0.3,-11.3,i,1.1,-10.6,-21.1,-3.0,COc1ccc(Cl)cc1NC(=O)CN(C)C(=O)CCCNC(=O)c1ccc(Cl)cc1
x,x,x,x,i,1.0,-7.5,-5.9,-2.9,N#C[C@@H]1[C@@H](c2ccccc2-c2ccccc2F)[C@@H](CO)N1C(=O)Cc1ccccc1
0.709,6.8%,3.1,-27.5,i,-4.9,-7.1,-17.9,7.2,CCOC(=O)c1c(C)oc2c1C(=O)c1ccccc1C2=O
0.736,-4.3%,-1.1,38.7,i,3.6,-11.9,-17.2,-5.1,Cc1ccc(N2C(=O)c3oc4ccccc4c(=O)c3C2c2cccc(O)c2)nc1 (configuration not stated)
0.702,-9.1%,0.8,-3.4,i,0.0,-1.3,-5.9,8.2,CCOC(=O)n1c(=O)n(Cc2ccc(OC)cc2)c2ccccc21
0.702,-7.9%,3.8,x,i,-6.1,1.5,9.0,-1.6,NS(=O)(=O)c1ccc(NC(=O)c2ccc(OCC3CCCO3)cc2)cc1 (configuration not stated)
0.62,0.8%,1.2,-1.2,x,x,x,x,x,COc1ccc(C(=O)N2CCCC2)cc1S(=O)(=O)N1CCOCC1
0.681,18.2%,-1.0,-4.6,i,11.3,2.8,11.9,-10.0,CCc1nnc(NC(=O)c2cccs2)s1
0.65,x,-48.7,-9.1,i,-0.9,9.9,14.7,-1.9,O=C(O)CCN1C(=O)/C(=C\c2ccc(OCc3ccccc3)c(OCc3ccccc3)c2)SC1=S
0.676,-1.8%,-3.0,1.2,x,x,x,x,x,CNC(=O)c1cc(C)c(-c2ccccc2)s1
0.702,20.5%,-1.3,33.6,i,-6.3,2.6,1.8,2.6,Cc1cc(C(=O)NCCC2=CCCCC2)c(C)o1
0.637,12.9%,-11.5,14.3,i,5.7,-41.2,-55.6,-2.7,O=C(Nc1ccc(C(=O)O)cc1)/C(=C\C=C\c1ccccc1)NC(=O)c1cccc(Br)c1
x,x,x,x,i,-1.6,1.1,9.1,-0.9,COc1ccccc1-c1ccc2n(c1=O)C[C@@H]1[C@@H](CO)[C@H](C(=O)NC3CCC3)N(C(=O)C3CCC3)[C@H]21
0.689,x,-5.1,1.9,i,0.1,-50.3,-74.6,-26.7,Cc1ccc(-c2csc(NC(=O)c3ccccc3Cl)c2C(=O)O)cc1
0.683,1.2%,3.6,1.8,i,6.7,-2.2,-1.8,0.1,COc1cccc(N2CCN(C(=O)c3cc(-c4ccc(F)cc4)[nH]c3C)CC2)c1
x,x,x,x,i,-2.1,-2.6,-5.2,0.9,C[C@H](CO)N1C[C@H](C)[C@@H](CN(C)C(=O)c2ccccc2)OCCCC[C@H](C)Oc2ccc(NS(=O)(=O)c3ccc(F)cc3)cc2C1=O
x,x,x,x,i,-0.3,1.0,1.4,-2.8,C[C@@H]1CN([C@H](C)CO)S(=O)(=O)c2ccc(-c3ccccc3)cc2O[C@H]1CN(C)S(=O)(=O)c1ccccc1F
0.61,x,-1.2,x,i,0.8,-8.5,-5.3,-0.4,COc1ccc(C(=O)NC2CCCN(Cc3ccc(Cl)cc3)C2)c(OC)c1 (configuration not stated)
0.704,4.8%,-2.3,31.2,i,1.3,2.6,6.5,1.1,COCCNC(=O)C(=O)NCC(c1ccc2c(c1)OCO2)N1CCN(c2ccc(F)cc2)CC1 (configuration not stated)
0.661,5.0%,5.7,-8.8,i,3.2,-1.8,-2.0,0.4,CN(C(=O)CC1C(=O)NCCN1Cc1ccc(F)c(F)c1)C1CCCCC1 (configuration not stated)
0.701,3.8%&5.6%,-2.0&2.9,-1.9&-1.2,i,1.2,6.1,4.6,-1.3,CC(=O)/C=C(/C)NC(Cc1c[nH]c2ccccc12)C(=O)O (configuration not stated)
x,4.9%,-0.6,x,i,-4.0,5.2,11.9,0.0,O=C(CSc1nc2ccccc2c(=O)n1-c1ccc(F)cc1F)NC1CCS(=O)(=O)C1 (configuration not stated)
0.688,-7.7%,0.9,-4.3,x,x,x,x,x,Cc1ccc(C)c(S(=O)(=O)N2C(=S)NC(=O)C2C(C)C)c1 (configuration not stated)
0.733,-4.2%,0.1,-1.8,x,x,x,x,x,CCOc1ccccc1CNC(=O)CNC(=O)c1cccs1
0.723,-11.0%,-0.9,x,x,-23.2,-4.0,4.2,-4.4,COc1ccc(C2CC(c3ccc(Cl)cc3)=NN2c2ccc(S(N)(=O)=O)cc2)cc1 (configuration not stated)
x,-2.4%,2.5,x,i,12.6,x,x,x,O=C(NCCCN1CCOCC1)/C(=C/c1ccc(-c2cccc([N+](=O)[O-])c2)o1)NC(=O)c1ccccc1
0.714,-3.6%,-3.5,0.5,x,x,2.0,6.9,-1.4,CC(C)(C)C(=O)Nc1ccc(C(=O)NNC(=O)Cc2ccccc2)cc1
0.671,6.7%,4.6,98.2*,i,4.5,7.5,6.2,1.6,CCc1ccc(-c2nc(CS(=O)CC(=O)NCCCN3CCC(C)CC3)c(C)o2)cc1 (configuration not stated)
0.726,-2.4%,4.5,x,i,0.7,-4.0,3.1,1.6,Cc1c(NC(=O)c2cc(-c3ccccc3)nc3ccccc23)c(=O)n(-c2ccccc2)n1C
x,-0.3%,1.1,x,i,-12.9,5.9,6.8,5.7,CCOC(=O)C1(CC/C(C)=N\NC(N)=O)CC(C)(C)OC1=O (configuration not stated)
0.663,1.4%,-1.9,-10.9,i,4.1,-6.2,-2.2,3.1,O=C(CNC(=O)c1ccc(Br)cc1)OCc1cc([N+](=O)[O-])cc2c1OCOC2
0.76,-0.9%,7.8,-5.4,x,x,x,x,x,CCCOc1ccc(NC(=O)C2CC(=O)N3CCCN=C3S2)cc1 (configuration not stated)
0.659,x,1.1,-9.8,i,x,1.1,4.9,-0.5,O=C(NCC1CC1)c1cc(-c2ccccc2)nn1CC1CC(c2cccc([N+](=O)[O-])c2)=NO1 (configuration not stated)
0.664,12.6%,0.6,-52.7,i,16.2,-4.8,-6.3,10.5,Cc1cccc2sc(N(CCCN(C)C)C(=O)COc3ccc(Cl)cc3)nc12
0.746,-2.8%,3.6,-7.6,x,x,x,x,x,CCOC(=O)c1ccc(NC(=O)C2CCN(S(=O)(=O)CC)CC2)cc1
x,x,x,x,i,0.4,0.2,3.0,-0.9,COc1ccc2c3c(n(C)c2c1)[C@@H](CO)N(Cc1nccs1)CC31CN(C(=O)CC2CC2)C1
0.69,x,-0.7,0.8,i,-4.5,-11.2,-29.3,-0.3,COc1cccc(C(=O)OCCCOC(=O)c2cccc(OC)c2OC)c1OC
0.712,x,-0.8,-32.1,x,x,x,x,x,Cc1cccc(Nc2nnc(SCC(=O)NCc3cccs3)s2)c1C
x,x,2.6,-2.9,i,2.5,1.9,8.1,1.9,C/C(=N\NC(=O)c1ccccc1)c1cccc(Br)c1
0.593,-1.1%,-1.7,-6.9,i,8.8,1.3,-4.8,2.0,CC12CCC(=O)N1C(C(=O)N1CCN(S(=O)(=O)c3ccc(Br)cc3Cl)CC1)CS2 (configuration not stated)
0.749,2.8%,2.5,u,x,x,x,x,x,CCCCn1c(=O)c(-[n+]2ccccc2)c([O-])c2ccccc21
0.697,6.8%&-4.1%,1.1,-18.9,x,x,x,x,x,COc1ccccc1-n1nnnc1SCc1cc2c(cc1Br)OCO2
0.729,0.8%,2.9,8.0,x,x,x,x,x,CCCCc1cc(=O)oc2c(CN3CCCC3)c(O)c(Cl)cc12
0.68,x,2.2,0.5,i,0.0,-25.3,-39.8,-8.9,CCn1cc(CCCC(=O)NCc2ccccc2OC)c2ccccc21

Other structures
E coli growth,Vif A3G,HNF4A DNA FP,ALR inh,FGF22 binding,AF4-AF9 inh,Ecoli rRNA inh,Ecoli rRNA inh OD600,Ecoli rRNA inh RFP,Molecule
0.688,-5.7%,-1.8,x,x,x,x,x,x,COc1ccc(CCNS(=O)(=O)c2ccc(OC)cc2)cc1
x,x,x,x,i,1.2,3.0,5.0,0.6,CN(C)C(=O)C[C@@H]1C[C@@H]2c3cc(NC(=O)Nc4ccc(F)cc4)ccc3O[C@@H]2[C@@H](CO)O1
0.694,x,-1.0,0.1,i,-6.9,2.5,7.3,-3.3,COc1cccc(CN2CC(C(=O)N(C)C3CCOCC3)CCC2=O)c1 (configuration not stated)
x,x,x,x,i,-1.3,6.8,10.5,0.4,CC(C)NC(=O)Nc1ccc2c(c1)CC(=O)N([C@H](C)CO)C[C@@H](C)[C@@H](CN(C)S(C)(=O)=O)O2
0.692,u,0.6,2.4,x,x,x,x,x,Cc1ccc(S(=O)(=O)NCCC(=O)NC2CCCC2)cc1
0.696,-2.4%,-3.2,-5.6,x,x,x,x,x,CCOC(=O)c1ccc(NS(=O)(=O)c2ccc3c(c2)CCCN3C(C)=O)cc1
x,29.9%,3.0,-19.2,i,-0.7,-1.4,-4.1,1.7,C=C(C)C1CC=C(C)/C(=N\NC(=O)CNc2cccc3ccccc23)C1 (configuration not stated)
x,x,x,x,i,-0.9,0.6,-2.3,0.5,Cc1noc(C)c1S(=O)(=O)Nc1ccc2c(c1)C(=O)N([C@H](C)CO)C[C@@H](C)[C@@H](CN(C)S(=O)(=O)c1ccc(F)cc1)OCCCC[C@H](C)O2
0.7,x,2.0,11.7,i,2.0,6.6,10.4,22.4,O=C(O)CCn1cc(-c2ccc(F)cc2)nc1-c1ccncc1
0.689,3.4%,-4.5,4.3,i,-0.8,0.3,-1.3,2.4,CNC(=O)C(=O)Nc1nc(C23CC4CC(CC(C4)C2)C3)cs1
0.654,x,-2.5,15.5,i,1.4,-5.2,-7.6,-6.0,Cc1ccccc1N1CCN(CC(=O)Nc2nc(C)c(C(=O)N(C)C)s2)CC1
x,x,x,x,i,-14.4,1.4,1.6,-2.4,CCC(=O)N(C)C[C@H]1Oc2ncc(C#Cc3ccncc3)cc2C(=O)N([C@H](C)CO)C[C@H]1C
x,x,x,x,i,1.5,-5.8,5.5,-6.4,CC(=O)N(C)C[C@@H]1Oc2cc(-c3cccc(C#N)c3)ccc2S(=O)(=O)N([C@H](C)CO)C[C@@H]1C
x,x,x,x,i,-0.7,-57.9,-74.8,-12.2,CCCC#Cc1ccc([C@H]2[C@@H](CO)N3CCCCN(C(=O)NC4CCCC4)C[C@H]23)cc1

High-throughput results (PubChem BioAssay)

Only part of the results is shown (hit frequency here may not be typical).
